Source: PubChem BioAssay (Fisher Drug Discovery Resource Center)
NPYLR7 ag: activates Aedes aegypti NPYLR7 receptor | HEK293T NPYLR7/Galpha15, GCaMP6s calcium fluorescence | activation, % at 10 µM | actives 0.15% (n = 270,000); in the data active means activation above about 40%;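 further: 0% = vehicle and 100% = reference agonist at the receptor; some compounds past the cut are filed as inactive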
NPYLR7 ag max-min: further read-out of NPYLR7 ag, marked with its call; activation, %; measured here: Max-Min RFU normalised activation; some inactives read as strong as hits;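 span of the calcium signal over five minutes; 0% = vehicle and 100% = native peptide agonist; compound fluorescence can raise it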
An asterisk follows results filed as active; & = joins results of further samples. Only part of the results is shown. The share of hits here may be higher or lower than overall.

SMILES	NPYLR7 ag	NPYLR7 ag max-min
O=C(CC[N+](=O)[O-])OC[C@H]1O[C@@H](O)[C@H](OC(=O)CC[N+](=O)[O-])[C@@H](OC(=O)CC[N+](=O)[O-])[C@@H]1OC(=O)CC[N+](=O)[O-]	-8	-11
Cc1ccc(CC2(N)CC2)cc1	0	7
C[C@]12Cc3cn4c(nc3C=C1CCC1C2CC[C@@]2(C)[C@H]1CC[C@@]2(O)C#N)nc1ccccc14 (stereo partly specified)	-2	20
C=C[C@H]1CN2CC[C@H]1C[C@@H]2CNS(=O)(=O)CCC	-10	-15
CN1C(=O)C2(CCN(Cc3cccnc3N)CC2)c2ccccc21	-2	7
COc1cc(OC)c(OC)cc1CNCCc1cccc(F)c1	-10	-13
CN1CC(=O)N(Cc2ccc(Cn3nc(C(=O)Nc4nncs4)c4ccccc43)cc2)c2ccccc2C1=O	-4	-10
CN1C(=O)C(=Cc2ccc(Cl)cc2Cl)C(=O)N(C)C1=O	-2	-3
O=C(Cc1ccc2c(c1)OCO2)N1CCN(Cc2cccc(-c3noc(-c4cccnc4)n3)c2)CC1	5	11
COc1cc(CN2CCCC(C(=O)c3sccc3C)C2)cc2c1OCO2 (stereo unspecified)	19	7
Cc1c[nH]c(CN2CCCC3(C2)CN(C)C(=O)O3)c(C)c1=O (stereo unspecified)	1	1
Cc1cc(C)cc(CC(C)NC(=O)CCn2ccccc2=O)c1 (stereo unspecified)	10	5
CC(Cc1ccccn1)N(C)Cc1cccc(C(=O)Nc2cn(C)nn2)c1 (stereo unspecified)	2	-1
c1ccc2c(N3CCNCC3)cccc2c1	1	28
CSC(C)C(=O)NC(C)Cc1ccc(Br)cc1 (stereo unspecified)	0	-2
Cc1ccc(C2(CN3[C@@H]4CC[C@H]3CC(O)C4)CCNCC2)nc1 (stereo partly specified)	1	0
CC(O)(CNC12CC3CC(CC(C3)C1)C2)c1ccc(Cl)cc1 (stereo unspecified)	3	3
CC(C)c1cc2c(c(O)c1O)[C@@]1(C(=O)O)CCCC(C)(C)C1CC2 (stereo partly specified)	-8	-13
O=P1(NCCCl)OCCCN1CCCl (stereo unspecified)	2	-3
COC(C)(C)C(=O)N1CCN2CCNC(=O)C2C1 (stereo unspecified)	9	7
C[C@]12CC[C@H](O)CC1=CC[C@@H]1[C@@H]2CC[C@]2(C)C(=O)CC[C@@H]12	0	-3
CCc1ccccc1NC(=O)c1cccn(Cc2ccccc2Cl)c1=O	3	1
O=C1NC(=O)C(Cc2ccccc2)(Cc2ccccc2)C(=O)N1	6	0
C=CCNC(=O)C(C)N1CCN(C(=O)COc2cccc(C)c2C)CC1 (stereo unspecified)	-4	-4
CC1CCC[C@H](O)CCCCCc2cc(O)cc(O)c2C(=O)O1 (stereo partly specified)	-9	-16
CCC(=O)O[C@H]1CC[C@H]2[C@@H]3CCC4=CC(=O)CC[C@]4(C)[C@H]3CC[C@]12C	-6	-8
Cc1cccn2c(CNC(C)Cc3cccs3)c(C(=O)N3CCOCC3)nc12 (stereo unspecified)	-12	-18
CC(C)(C)n1nc(-c2ccccc2)c2c1N(CC(=O)NCc1ccc(F)cc1)C(=O)CSC2c1ccccc1Cl (stereo unspecified)	11	5
CC(N)Cc1c[nH]c2ccc(O)cc12 (stereo unspecified)	0&5	-10&-36
CC1(C)C(C(=O)N2CCCC(Nc3ccc(F)cc3)C2)C1(C)C (stereo unspecified)	6	1
CCSc1nc(CC(=O)N2CCCCC2CN2CCOCC2)cs1 (stereo unspecified)	3	2
Fc1ccc(C2NCc3ccc4c(c3-n3cccc32)OCO4)cc1 (stereo unspecified)	-5	-8
CC(Cc1ccccn1)N(C)Cc1ccsc1 (stereo unspecified)	0	5
Cc1ccccc1Cn1cccc(C(=O)Nc2nccs2)c1=O	15	8
NC(c1ccccc1)P(=O)(O)O (stereo unspecified)	4	12
C1CN2CCC1/C(=N/Nc1nn[nH]n1)C2	-13	-21
CC(C)c1ccc(S(=O)(=O)N2CCN(CCOC(c3ccc(F)cc3)c3ccc(F)cc3)CC2)cc1	4	0
O=C(Cc1ccsc1)N1CCN(Cc2cccc(-c3noc(-c4ccccc4)n3)c2)CC1	4	5
Fc1ccc2nc(N3CCNCC3)sc2c1	-2	-6
CC(C)(C)n1cc(C(=O)Nc2ccc3nc4n(c(=O)c3c2)CCC4)cn1	3	3
Cc1nn(-c2ccccc2)c(C)c1P(=S)(c1ccccc1)N(C)C (stereo unspecified)	6	4
CC[C@H]1CN2CC[C@H]1C[C@@H]2CNC(=O)CC(C)(C)CC(=O)O	-9	-16
CN1CCc2nc(SCc3cccnc3)c(C#N)cc2C1	8	2
Cc1[nH]cnc1-c1nccn1CCc1cnc[nH]1	-7	-7
O=C(O)C1=CCCN(CCOC(c2ccc(C(F)(F)F)cc2)c2ccc(C(F)(F)F)cc2)C1	4	-3
CC(C)(C)c1nn(-c2cccc(Cl)c2)c2c1C(c1cccc(F)c1)SCC(=O)N2CC(=O)N1CCOCC1 (stereo unspecified)	5	15
Cc1ccccc1N1C(=O)/C(=C/c2ccco2)C(=O)NC1=S	-2	-10
Cc1ccc(CC(=O)N2CCN(C3CCNC3=O)CC2)cc1 (stereo unspecified)	1	2
CSc1ccc(C(=O)C2CCCN(Cc3csc(C(C)=O)c3)C2)cc1 (stereo unspecified)	1	-6
COc1ccc(-n2nc(-c3ccccc3)c3c2N(CC(=O)O)C(=O)CSC3c2ccsc2)cc1 (stereo unspecified)	-6	-14

Random excerpt: seven compounds from above
SMILES	NPYLR7 ag	NPYLR7 ag max-min
CN1CCc2nc(SCc3cccnc3)c(C#N)cc2C1	8	2
Cc1ccc(CC(=O)N2CCN(C3CCNC3=O)CC2)cc1 (stereo unspecified)	1	2
Cc1nn(-c2ccccc2)c(C)c1P(=S)(c1ccccc1)N(C)C (stereo unspecified)	6	4
COc1ccc(-n2nc(-c3ccccc3)c3c2N(CC(=O)O)C(=O)CSC3c2ccsc2)cc1 (stereo unspecified)	-6	-14
Cc1ccccc1N1C(=O)/C(=C/c2ccco2)C(=O)NC1=S	-2	-10
Cc1[nH]cnc1-c1nccn1CCc1cnc[nH]1	-7	-7
CC[C@H]1CN2CC[C@H]1C[C@@H]2CNC(=O)CC(C)(C)CC(=O)O	-9	-16

(cont.)
SMILES	NPYLR7 ag	NPYLR7 ag max-min
CC(NCc1ccccc1)c1nc2ccccc2c(=O)n1-c1ccc(Cl)cc1 (stereo unspecified)	1	8
CCCN(CCC)CCc1ccc(O)c(O)c1	-1	-28
COC(=O)C1C(=N)Oc2cc(C)n(CC3CCCO3)c(=O)c2C12C(=O)N(CC(C)C)c1ccccc12 (stereo unspecified)	-2	-4
O=C1OCCC1Sc1ccc(Br)cc1 (stereo unspecified)	4	3
O=c1cc(O)c2ccccc2o1	4	1
O=c1[nH]c2ccccc2n1C1CCN(CCCC(c2ccc(F)cc2)c2ccc(F)cc2)CC1	-9&-1&3	-12&-6&-23
COC(=O)N(C)c1ccc(C(O)(C(=O)OC)C(F)(F)F)cc1 (stereo unspecified)	2	0
CC(Cc1cccs1)NCC(=O)Nc1cnccn1 (stereo unspecified)	5	1
Cc1cc(N2CCN(C)CC2)c2nncn2n1	20	12
COc1ccc(OC)c(CC(=O)N2CCN(Cc3cc(=O)c(OCc4ccccc4Cl)co3)CC2)c1	1	-2
COc1ccc(-c2ccccc2N2CCNCC2)c(OC)c1OC	3	2
O=c1[nH]c(=S)[nH]c(O)c1N=Nc1ccc2c(c1)OCCO2	16	20
CCC(C)(C)c1ccc(S(=O)(=O)N2CCN(CCOC(c3ccccc3)c3ccc(N4CCOCC4)cc3)CC2)cc1 (stereo unspecified)	4	1
CCN(CC)CCOC(=O)C(O)(c1ccccc1)c1ccccc1	-4	-6
O=c1oc2ccccc2c(O)c1C(c1cncs1)c1c(O)c2ccccc2oc1=O	3	0
CC(C)P(=S)(c1c(F)c(F)nc(F)c1F)C(C)C	-13	-19
NC(Cc1ccc(N(CCCl)CCCl)cc1)C(=O)O (stereo unspecified)	3	-24
O=C(Nc1ccncc1)c1cccn(Cc2ccc(F)cc2)c1=O	11	1
CC(C)c1nccc(C(=O)N2CCN3CCNC(=O)C3C2)n1 (stereo unspecified)	0	5
COCC1=C(C(=O)OC)C2(C(=O)Nc3ccccc32)C(C(=O)OCc2ccccc2)C(=N)O1 (stereo unspecified)	-5	-7

Entries of single compounds, quoted from the list. Screens in order: NPYLR7 ag | NPYLR7 ag max-min
COCC1=C(C(=O)OC)C2(C(=O)Nc3ccccc32)C(C(=O)OCc2ccccc2)C(=N)O1 (stereo unspecified) across the screens: -5 | -7
CC(C)c1nccc(C(=O)N2CCN3CCNC(=O)C3C2)n1 (stereo unspecified) across the screens: 0 | 5
NC(Cc1ccc(N(CCCl)CCCl)cc1)C(=O)O (stereo unspecified) across the screens: 3 | -24

Two successive entries out of the list so far, for reference:
SMILES	NPYLR7 ag	NPYLR7 ag max-min
COc1ccc(-c2ccccc2N2CCNCC2)c(OC)c1OC	3	2
O=c1[nH]c(=S)[nH]c(O)c1N=Nc1ccc2c(c1)OCCO2	16	20

In the list so far, two have a cyano group:
SMILES	NPYLR7 ag	NPYLR7 ag max-min
C[C@]12Cc3cn4c(nc3C=C1CCC1C2CC[C@@]2(C)[C@H]1CC[C@@]2(O)C#N)nc1ccccc14 (stereo partly specified)	-2	20
CN1CCc2nc(SCc3cccnc3)c(C#N)cc2C1	8	2

Remaining list, next part
SMILES	NPYLR7 ag	NPYLR7 ag max-min
O=C1NC(=O)N(Cc2ccccc2)C(=O)C1=Cc1ccco1	-6	-9
COCCN(CC(=O)Nc1nc(CC(=O)N2CCN(C/C=C/c3ccccc3)CC2)cs1)C(=O)c1ccc(OC)cc1	-6	5
O=[N+]([O-])c1ccccc1CBr	0	-8
CC(C)C1c2c(c3ccccc3oc2=O)OC(=N)C1C#N (stereo unspecified)	-2	-9
ON1C2CCCCC2N(O)C1c1ccco1 (stereo unspecified)	-10	-11
COc1ccc(O)c(CN2CCCC(C(=O)c3sccc3C)C2)c1 (stereo unspecified)	-1	-4
O=C(NC(Cc1cnc[nH]1)C(=O)O)c1ccccc1 (stereo unspecified)	-5	-6
O=C(Nc1cccnc1)c1cccn(Cc2ccc(Cl)cc2Cl)c1=O	2	1
COc1ccc(C(C)=NNP(=S)(c2ccccc2)c2ccccc2)cc1	18	8
O=C(CN1CCN(C(=O)c2ccco2)CC1)Nc1ccc(Br)cc1C(=O)c1ccccc1Br	-14	-18
Cc1ccccc1CC(=O)N1CCN(Cc2cccc(-c3noc(-c4cccc(Cl)c4)n3)c2)CC1	32	22
O=C(CCN1CCC(c2cccc(O)c2)CC1)Nc1nccs1	-3	-1
O=[N+]([O-])c1ccc2c(c1)CNCC2	-4	0
CCN(CC)P(=S)(C=C1N(C)c2ccccc2C1(C)C)CC (stereo unspecified)	4	3
Cn1ccnc1C(=O)C1CCCN(Cc2cc3n(n2)CCNC3)C1 (stereo unspecified)	4	3
CC(C)CCP(=O)(O)c1ccccc1	-18	-22
CC(Cn1cncn1)NCc1ccc2sccc2c1 (stereo unspecified)	11	8
CCOC(=O)C(O)(c1csc(N)n1)c1c(C)nn(-c2ccc(C)cc2)c1N (stereo unspecified)	4	11
O=C(c1nn(Cc2ccc(OCc3ccccc3)cc2)c2ccccc12)N1CCN(C(=O)C2CCCO2)CC1 (stereo unspecified)	8	15
CN(C)CCN(C(=O)Cc1ccc(F)cc1)c1nc2ccc(F)cc2s1	19	11
CC(Cc1ccccn1)N(C)Cc1nc2ccccc2n1C (stereo unspecified)	19	9
N=C1c2ccccc2CN1c1ccc2c(c1)OCCO2	-5	-10
C[C@@H](NC(=O)C1CC=CCC1C(=O)N1CCC(C#N)(c2ccccc2)CC1)C(C)(C)C (stereo partly specified)	-7	-14
c1ccc([C@H]2CN(Cc3ccccn3)[C@@H]3C4CCN(CC4)[C@H]23)cc1	6	1
CCC(C)c1csc(C2CN3CCCC3CO2)n1 (stereo unspecified)	-6	-10
CN1C(=O)NC(=O)C(C)(C2=CCCCC2)C1=O (stereo unspecified)	11&-18	8&-30
O=C(c1cc(Cl)cc(Cl)c1)N1CCN(CCOC(c2ccccc2)c2ccccc2)CC1	22	16
CC[C@@]1(O)C(=O)OCc2c1cc1n(c2=O)Cc2cc3ccccc3nc2-1	-1&-5	-2&-8
O=S1(=O)N(CCN2CC=C(c3c[nH]c4cc(F)ccc34)CC2)c2cccc3c2N1CCC3	-2	-3
Cc1ccc(C(=O)Nc2ccc3[nH]cc(CCN4CCOCC4)c3c2)cc1F	-3	-9
CCN(CC)c1ccc(C=C(C#N)C#N)cc1	8	10
CCC(=O)O[C@H]1CCC2C3CCC4=CC(=O)CC[C@]4(C)C3CC[C@@]21C (stereo partly specified)	1	-8
O=C(NC[C@H]1C[C@@H]2CCN1C[C@@H]2CN1CCc2ccccc2C1)Nc1ccsc1	-5	-9
N#Cc1ccccc1NC(=O)c1cccn(Cc2ccc(C(F)(F)F)cc2)c1=O	13	7
COc1ccc(C2NCc3ccc4c(c3-n3cccc32)OCO4)cc1OC (stereo unspecified)	-3	-6
O=C1OCCN1/N=C\c1ccc([N+](=O)[O-])o1	-2	-3
CCOC(=O)[C@@H]1[C@H]2CN(C(=O)COc3ccccc3)CCN2C[C@H]1c1ccccc1	5	17
O=C(Nc1ccc2[nH]cc(CCN3CCOCC3)c2c1)c1c(F)c(F)c(F)c(F)c1F	22	23
Cc1ccsc1C(=O)C1CCCN(Cc2cccn2-c2ccccn2)C1 (stereo unspecified)	0	-4
CN(C)P(=S)(CC12CC3CC(CC(C3)C1)C2)N(C)C	10	10
Cn1ccnc1P(=S)(c1nccn1C)N1CCOCC1	5	2
N#CC1(c2ccccc2)CCN(C(=O)C2CCCCC2C(=O)NCc2cccnc2)CC1 (stereo unspecified)	-8	-15
COC(=O)c1ccc(C(=O)OC)c(NC(=O)c2cccn(Cc3ccc(C)cc3)c2=O)c1	12	7
CCn1c(C)cc(C)c(C(=O)N2CCCC3(CCNC3)C2)c1=O (stereo unspecified)	7	4
CN1C(=O)C(=Cc2ccccc2OCc2ccccc2Cl)C(=O)N(C)C1=O	20	15
Cc1ccccc1-c1noc(CNC(C)Cc2cccs2)n1 (stereo unspecified)	8	5
CC12CCC3C(CCC4=C(O)C(=O)CCC43C)C1CCC2=O (stereo unspecified)	5	-8
